# Vaccinia mCherry: inhibitors of vaccinia virus infection (mCherry reporter signal). Vaccinia virus mCherry reporter infection, fluorescence; about a quarter of the inactives have no number. Potency, µM (titrated, usually from 36.5 µM), without a hit: top-dose activity change, negative = inhibition, actives largely listed as inhibitors. 310,000 compounds, 0.63% hits; active = well fitted inhibition curve with a large enough effect; inconclusive = small, poorly fitted or top-dose-only effect; inactive = no such curve, though single readings can be large or run the other way; tested in A549 cells; also: nearly all actives have a fitted effect of over 35% in size; inactives centre near -10
# Vaccinia Venus: vaccinia inhibition (Venus reporter); Vaccinia virus Venus reporter expression, fluorescence; Potency, µM (series often up to 36.5 µM), inactives show at the highest dose activity change, negative = inhibition, most hits filed as inhibitors; 330,000 compounds, 0.46% hits; AID 720580; active means well fitted inhibition curve with a large enough effect; inconclusive means small, poorly fitted or top-dose-only effect; inactive means no such curve, though single readings can be large or run the other way; tested in A549 cells; also: nearly all actives have a fitted effect of over 30% in size; inactives centre near -10
# The depositor's hits bear a star; i = inactive; ? = inconclusive; / = not tested or not shown; & = joins results of further samples; [ ] = remark or other dose. % is scaled to controls: 0 for no effect and ±100 for the full control effect; potency is read from the fitted curve at half-maximal effect.
No.	smiles	Vaccinia Venus	Vaccinia mCherry
1	O=C(CN(c1ccc(Cl)c(C(F)(F)F)c1)S(=O)(=O)c1ccccc1)N/N=C/c1cccc2c1OCCO2	?	?
2	CCCCNC(=O)[C@H]1C[C@H]1[C@@H](O)[C@H](CO)NC(=O)[C@H](Cc1ccccc1)NC(=O)OC(C)(C)C	-4%	-29%
3	CN(CC(=O)N1CCN(Cc2ccccc2)CC1)S(=O)(=O)c1ccc(F)cc1	-11%	-21%
4	COc1ccc(S(=O)(=O)CCC(=O)N2c3ccccc3CC2C)cc1 (stereo unspecified)	-14%	/
5	COc1ccc(OC)c(S(=O)(=O)N2CCC(C(=O)N3CCN(Cc4ccccc4)CC3)CC2)c1	?	/
6	CN(C)c1ccc(/C=C2/C(=O)NC(=O)N(Cc3ccco3)C2=O)cc1	-3%	i
7	COC(=O)c1ccc(S(=O)(=O)c2ccccc2)c(N)c1	-12%	-21%
8	CN(Cc1ccccc1)C(=O)c1ccc2sc([C@@H]3O[C@H](CO)[C@H](O)[C@H](O)[C@H]3O)nc2c1	-1%	i
9	COc1ccc([C@H]2C[C@H](O)[C@@H](n3cc(C4CC4)nn3)CN2Cc2cccs2)cc1	-13%	i
10	O=C(CN1C(=O)NC2(CCCC2)C1=O)Nc1nc2ccccc2s1	-16%	-1%
11	Cn1c(CCNC(=O)c2ccc(Cl)cc2)n[nH]c1=S	?	/
12	COc1ccc(-n2c(N)c(Br)c(=O)[nH]c2=O)cc1	-3%	i
13	COc1ccc(CC(=O)NC2CC(=O)N(c3cccc(F)c3)C2)cc1OC (stereo unspecified)	-5%	-8%
14	CN1CCCC(CC2Oc3ccccc3Sc3ccccc32)C1 (stereo unspecified)	?	?
15	c1ccc(-c2ccc3cnccc3n2)cc1	2%	10%
16	Cn1c(=N)n(CC(=O)c2ccc(Br)cc2)c2ccccc21	-25%	i
17	CS(=O)(=O)c1ccc(S(=O)CC(=O)OCc2ccccc2)c([N+](=O)[O-])c1 (stereo unspecified)	-14%	-22%
18	O=C(NCC(c1ccco1)N1CCCC1)c1cn(Cc2ccccc2)nc1-c1ccccc1 (stereo unspecified)	-3%	-3%
19	CCSc1nc2c([nH]c3ccccc32)c(=O)n1-c1cccc(OC)c1	-14%	-15%
20	COc1ccc(C(=O)N/N=C/c2ccc(OC)c(COc3ccccc3)c2)cc1	-22%	-12%
21	C=C(C)CN(CC)C(=O)CSc1ccc(S(=O)(=O)N2CCN(C)CC2)cn1	-9%	i
22	CCOC(=O)C1CCN(C(=O)c2nn(-c3ccc(C)cc3)c(=O)c3c2c2ccccc2n3C)CC1	5%	0%
23	COc1ccccc1CNC(=O)C(C)n1c(=O)cc(-c2ccccc2)c2c(C)nn(C)c21 (stereo unspecified)	-7%	-5%
24	C=CCN1C=CC(=O)[C@@H](OC(=O)Nc2ccc(Br)cc2)[C@H]1c1ccccc1Br	?	-24%
25	Cc1ccc(S(=O)(=O)NCC(=O)N(CC(=O)NCc2ccco2)Cc2ccc3c(c2)OCO3)cc1	?	/
26	CCCNC(=O)c1ccc2c(c1)N=C(C)c1c(C)ccc(C)c1S2	-19%	?
27	CCOC(=O)c1c(NC(=O)C(F)(OC)C(F)(F)F)sc(C(=O)N2CCCCC2)c1C (stereo unspecified)	-15%	i
28	CCCCn1nnnc1SCC(=O)Nc1cccc(C)c1	-11%	0%
29	COCc1cccc(-c2csc(C(C)(O)c3cccc(OC)c3)n2)c1 (stereo unspecified)	-8%	i
30	CCOC(=O)c1cc(OC(=O)Cc2ccc(OC)c(S(=O)(=O)N3CCOCC3)c2)cc(C(=O)OCC)c1	-23%	i
31	CC(C)CCn1cnc2c(cnn2-c2ccc(Cl)cc2)c1=O	-9%	i[1.46 µM]
32	CCCCCC(C)N (stereo unspecified)	-5%	-15%
33	C/C(=C/C(=O)N1CCN(C)CC1)C(=O)O	3%	-11%
34	COc1ccccc1NC(=O)CN1C(=O)CSc2ccc(S(=O)(=O)N3CCCC3)cc21	-6%	-6%
35	Cc1ccsc1/C=N/NC(=O)c1cccc(S(=O)(=O)Nc2ccccc2Cl)c1	-8%	-10%
36	Cc1ccc(-c2nc3sc(CCNS(=O)(=O)c4cc(F)ccc4F)c(C)n3n2)cc1	?	?
37	CCOc1ccc(NC(=O)c2cnn3c2NC(c2cccc(OC)c2)=CC3c2ccccc2)cc1 (stereo unspecified)	-26%	?
38	Cc1ccc2oc(C(=O)NCc3ncc(C)[nH]3)c(C)c2c1	-5%	i
39	C#CC(C)OC(=O)Nc1cnccc1C(F)(F)F (stereo unspecified)	-16%	i
40	Cc1nc2scc(C)n2c(=O)c1S(=O)(=O)N1CCN(c2ccccn2)CC1	-14%	i
41	CCc1ccc(S(=O)(=O)N2CCN(c3ncccn3)CC2)cc1	-12%	i
42	Cc1cc(C(=O)NCC(=O)OCC(=O)N(C)C2CCCCC2)ccc1[N+](=O)[O-]	0%	i
43	COc1cc(C(=O)OC(C)C(=O)NCC2CCCCC2)cc(NC(=O)c2ccco2)c1OC (stereo unspecified)	5%	i
44	N/C(CCN1CCCCC1)=N/O	2%	-8%
45	CCOC(=O)c1cccc(NC(=O)c2cnn(-c3ccccc3)c2-n2cccc2)c1	-12%	-3%
46	CCC1CCCCN1CCCNC(=O)c1ccc2c(c1)N(Cc1cccc(C)c1)C(=O)c1ccccc1S2(=O)=O (stereo unspecified)	?	-8%
47	O=S(=O)(c1ccc(OCc2nc3ccccc3s2)c(Cl)c1)N1CCOCC1	-10%	i
48	COc1ccc(/C=C/C(=O)c2ccc3c4c(cccc24)CC3)cc1OC	?	?
49	CC(Oc1ccc(Br)cc1)C(=O)N(Cc1nc(-c2ccccc2)no1)C(C)C (stereo unspecified)	?	?
50	COc1nccnc1NS(=O)(=O)c1ccc(NC(=S)NC(=O)c2ccccc2)cc1	-4%	-14%

# Of the compounds above, five have a Cl atom.
No.	smiles	Vaccinia Venus	Vaccinia mCherry
1	O=C(CN(c1ccc(Cl)c(C(F)(F)F)c1)S(=O)(=O)c1ccccc1)N/N=C/c1cccc2c1OCCO2	?	?
11	Cn1c(CCNC(=O)c2ccc(Cl)cc2)n[nH]c1=S	?	/
31	CC(C)CCn1cnc2c(cnn2-c2ccc(Cl)cc2)c1=O	-9%	i[1.46 µM]
35	Cc1ccsc1/C=N/NC(=O)c1cccc(S(=O)(=O)Nc2ccccc2Cl)c1	-8%	-10%
47	O=S(=O)(c1ccc(OCc2nc3ccccc3s2)c(Cl)c1)N1CCOCC1	-10%	i

# (next part)
No.	smiles	Vaccinia Venus	Vaccinia mCherry
51	COc1ccc(-c2c(C)nc(N)nc2-c2ccc(OCc3ccc(C)cc3)cc2O)cc1OC	-14%	-5%
52	Cc1cccc(N2CCN(C(=O)c3ccc4c(c3)N(Cc3ccccc3F)C(=O)c3ccccc3S4=O)CC2C)c1 (stereo unspecified)	-18%	-23%
53	CC(C)Oc1ccc(CCc2nnc(SC(C)C(=O)O)n2-c2ccccc2)cc1 (stereo unspecified)	-4%	i
54	C[C@H]1CN([C@@H](C)CO)C(=O)CCCn2cc(nn2)CO[C@@H]1CN(C)C(=O)Nc1ccc2c(c1)OCO2	-8%	-7%
55	CCOC(=O)N1CCN(c2cc3nccnc3cc2F)CC1	-13%	-6%
56	O=C(O)CC1S/C(=N/N=C2CCCCC2)N(c2ccccc2)C1=O (stereo unspecified)	-12%	i
57	Cc1ccc(C2=NS(=O)(=O)N(C)C(C(=O)N(C)C3CCCCC3)=C2)cc1	2%	9%
58	CC(C)OC(=O)CSc1nc2c(c(C3CC=CCC3)c1C#N)CCC2 (stereo unspecified)	-4%	i
59	Cc1ccc(C(=O)CC2(O)C(=O)N(Cc3ccccc3)c3ccccc32)o1 (stereo unspecified)	-3%	/
60	COc1ccc(S(=O)(=O)N(C)CC(=O)NCCCn2ccnc2)cc1Cl	-8%	-17%
61	CCOc1ccc(NC(=O)COC(=O)C2CC2C)cc1 (stereo unspecified)	15%	-12%
62	CC(=O)Nc1ccc(S(=O)(=O)c2ccnc3cc(Cl)ccc23)cc1	?	?
63	O=c1c2ccccc2n(Cc2cccc(Cl)c2)c(=O)n1CCc1ccccc1	11%	14%
64	O=C(COC(=O)COc1ccccc1)NC1CCS(=O)(=O)C1 (stereo unspecified)	5%	-7%
65	COc1cccc(/C=N/NC(=O)C(=O)N2CCCC2)c1	-10%	-15%
66	COc1ccc(Cl)cc1S(=O)(=O)N(C)CC(=O)NCCCn1ccnc1	-2%	-6%
67	CCN1C(=O)c2ccccc2S(=O)c2ccc(C(=O)NCc3ccccc3OC)cc21 (stereo unspecified)	-1%	2%
68	CCOC(=O)Cn1c(C)[n+](CC(=O)c2ccccc2)c2ccccc21	-10%	-17%
69	COc1ccc(N(C(=O)c2cccc(C)c2)S(=O)(=O)c2ccc(Cl)cc2)cc1	-7%	-14%
70	CCOC(=O)c1c(NC(=O)C2C3C=CC(C3)C2(C)C(=O)O)sc2c1CCCC2 (stereo unspecified)	-8%	-16%
71	CCC(=O)Nc1ccc(C(=O)n2nc(C)cc2C)cc1	-18%	/
72	COc1cc(OC)c(NC(=O)CC(c2cccs2)N2Cc3ccccc3C2=O)cc1Cl (stereo unspecified)	-12%	-23%
73	NC(=O)C1CCN(C(=O)COc2cccc3cccnc23)CC1	-12%	i
74	Cc1ccc(OCC(=O)Nc2ccc(N3CCN(S(C)(=O)=O)CC3)cc2)cc1C	-5%	6%
75	O=C(Cc1ccccc1)NNC(=S)NC(=O)c1cccs1	-2%	-11%
76	Cc1ccc(NC(=O)CCN2CCN(CCO)CC2)cc1C	-5%	-15%
77	O=C(/C=C/c1ccccc1)NNC(=O)c1cccnc1	-22%	-30%
78	COc1ccc(NS(=O)(=O)c2ccc(C)c(C(=O)N3CCN(Cc4cc(OC)ccc4OC)CC3)c2)cc1	-5%	-21%
79	CCOC(=O)C[C@H]1c2ccccc2S(=O)(=O)N1Cc1ccc(Cl)cc1	-1%&-7%	-11%
80	COCCCNC(=O)CCCOc1ccccc1	-4%	-5%
81	Cc1cc(C)nc(NC(=O)c2ccc(Cl)cc2[N+](=O)[O-])c1	-13%	-17%
82	CCCn1c(=O)c(C(=O)NCCc2ccccc2)c(O)c2ccccc21	-17%	-16%
83	COc1ccc(N2CCN(C(=O)c3ccccc3NS(=O)(=O)c3ccccc3)CC2)cc1	-11%	-12%
84	COc1ccccc1NC(=O)C1=C(C)Nc2nc(CCCO)nn2C1c1cccc(O)c1 (stereo unspecified)	-13%	-8%
85	Cc1ccc2nc(COc3ccc(NC(=O)COc4ccccc4F)cc3)cc(=O)n2c1	-4%	-21%
86	Cn1cc(Br)c(-c2cccc(NC(=O)CC(C)(C)CC(=O)O)c2)n1	-7%	-16%
87	CN1CCN(c2ncnc3c2ncn3[C@H]2CN(Cc3ccc(C(=O)O)cc3)C[C@@H](CO)O2)CC1	7%	38%[activator]
88	CN(Cc1ccccc1)C(=O)c1cccc(NC(=O)Cc2ccc(NC(=O)C3CCN(C(=O)c4ccccc4)CC3)cc2)c1	-28%	-5%
89	Cn1c(Nn2cnnc2)nc2ccccc21	-1%	-9%
90	CC(C)C(=O)Nc1nc(-c2ccc3c(c2)CCN3C(=O)C2CC2)cs1	-1%	-8%
91	CCOC(=O)c1c(NC(=O)CSc2cn(CCNC(=O)c3ccc(OCC)cc3)c3ccccc23)sc2c1CCC2	-1%	-6%
92	CN(C(=O)COC(=O)c1ccc([N+](=O)[O-])cc1)c1ccccc1	-19%	-8%
93	FC(F)(F)c1ccccc1Cc1c(-c2cccc(Cl)c2)nc2ccc(Cl)cn12	1%	4%
94	CC1CC(C)CN(C(=O)CCNS(=O)(=O)c2cccs2)C1 (stereo unspecified)	1%	-3%
95	CC(C)C[C@H]1CN(CCCC[C@H]2CNC(=O)C(=O)N2Cc2ccccc2)C(=O)C(=O)N1CC1CCCCC1	7%	9%
96	COc1cc(CNC2CCCc3ccccc32)cc(OC)c1OC (stereo unspecified)	-11%	-15%
97	CCCc1cc(-c2ccc3c(c2)COc2c4ccccc4nn2-3)on1	?	?
98	CC(C)C(NC(=O)/C=C/c1cccc([N+](=O)[O-])c1)C(C)C	-10%	-18%
99	CCCCNC(=O)C1CCC(CNS(=O)(=O)c2ccc(C)cc2)CC1 (stereo unspecified)	-14%&-4%	-2%
100	O=S(=O)(Nc1ccc(-c2cn3c(n2)SCC3)cc1)c1cccs1	-10%	i

# (next part)
No.	smiles	Vaccinia Venus	Vaccinia mCherry
101	O=C(OCC(=O)N1CCCC1=O)c1ncc(Cl)c(Cl)c1Cl	-5%	-6%
102	O=S(=O)(N/N=C\c1cccn1-c1ccccc1)c1ccc2ccccc2c1	-13%	i
103	COc1ccc(OC)c(NC2=NCCCS2)c1	-8%	i
104	Cc1ccc(Cn2nnnc2CN2CCC(n3nnc4ccccc43)CC2)cc1	-16%	-10%
105	O=C(Nc1ccc(C(=O)N2CCCC2)cc1)c1ccc(F)cc1Cl	-9%	i
106	COc1ccc(C(C#N)=C2C=CC(=NO)C=C2)cc1	39%[activator][7.34 µM]	-13%[7.34 µM]
107	COc1cccc(NC(=O)CSc2nc(=O)n(Cc3ccco3)c3c2CCC3)c1	-7%	-18%
108	CCCCN(CCCC)CC1OCc2ccccc2CO1	-1%	-3%
109	Brc1ccc(/C=N/n2cnnc2)s1	-11%	-3%
110	Cc1nnc(SCC(=O)N2CCN(c3ccccc3)CC2)n1C1CC1	-13%	-17%
111	CCN(CC(=O)Nc1cc(Cl)ccc1C)C(=O)CCS(=O)(=O)c1ccc(Cl)cc1	?	11µM*

# Screening results as filed in PubChem BioAssay.
